Screens as filed in PubChem BioAssay.
Six1-Eya2 inh: Six1/Eya2 interaction inhibition | Q15475+O00167 | AlphaScreen GST-Six1/His-Eya2 binding, biochemical; active compounds read low; control for the full effect not named in the record | activity change, % (no concentration beside the values) | 360,000 compounds, 0.56% hits | AID 651725; in the data active = activity change below about -65%; inconclusive = about -30% to -65%; inactive = above about -30%; note: % is set by controls: 0 for no effect and ±100 for the full control effect
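Homogeneous AlphaScreen proximity assay pairing GST-Six1 with His-tagged Eya2 (added as 5X mix: 250 nM and 500 nM) in 50 mM Tris pH 8.0, 300 mM NaCl, 1 mM TCEP. Glutathione donor and nickel acceptor beads; 1 h, 37 °C, dark.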
TRPML1 inh: blocks the human TRPML1 channel; Q9GZU1; TRPML1-inducible cells, Ca2+ dye fluorescence, FDSS; active compounds read low; inhibition of EC80 agonist-evoked calcium signal; activity change, negative = inhibition, % (no concentration beside the values); 390,000 compounds, 0.02% hits; in the data active means activity change below about -50%; inconclusive means about -30% to -50%; inactive means above about -30%;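 note: stimulus is agonist 54-4 at its EC80 concentration; % is set by controls: 0 for no effect and ±100 for the full control effect; compound concentration not given in the record; the text of the record puts the active cut at -80%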
Target sequence (Q9GZU1 whole entry, looked up): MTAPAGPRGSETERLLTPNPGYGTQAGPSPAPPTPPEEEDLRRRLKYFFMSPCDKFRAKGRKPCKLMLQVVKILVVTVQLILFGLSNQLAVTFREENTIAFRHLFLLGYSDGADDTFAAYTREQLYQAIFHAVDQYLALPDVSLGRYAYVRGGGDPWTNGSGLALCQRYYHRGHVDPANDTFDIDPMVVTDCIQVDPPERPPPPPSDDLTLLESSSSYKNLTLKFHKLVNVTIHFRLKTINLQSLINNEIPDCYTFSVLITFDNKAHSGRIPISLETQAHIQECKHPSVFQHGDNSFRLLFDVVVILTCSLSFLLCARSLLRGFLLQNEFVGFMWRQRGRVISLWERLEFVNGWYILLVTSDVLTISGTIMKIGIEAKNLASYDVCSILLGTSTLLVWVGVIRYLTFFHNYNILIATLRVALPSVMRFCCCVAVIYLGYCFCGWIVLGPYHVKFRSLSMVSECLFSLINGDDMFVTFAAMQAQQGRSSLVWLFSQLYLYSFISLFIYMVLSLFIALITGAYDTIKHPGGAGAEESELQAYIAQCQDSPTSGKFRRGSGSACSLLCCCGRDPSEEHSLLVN
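Tet-induced TRPML1-DL cells loaded with Ca8 no-wash calcium dye were read kinetically on FDSS. Compound addition was followed by EC80 agonist 54-4 (4 uM final); inhibition was read over 110 s.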
TRPML1 ag: agonists of human TRPML1 channel; Q9GZU1; TRPML1-expressing cells, Ca2+ dye fluorescence, FDSS; host cell line not named in the record; reference of the full effect not given here; activation, % (concentration not given with the values); 410,000 compounds, 0.12% hits; AID 624414; in the data active = activation above about 50%; inconclusive = about 30% to 50%; inactive = below about 30%; note: 0% is about no effect; the text of the record puts the active cut at 80%
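Kinetic FDSS Ca2+ read in Tet-induced TRPML1-DL cells (ABD Ca8 dye plus quencher, 45-90 min RT loading): baseline, then compound, then 110 s agonist window; EC80 agonist 54-4 at 4uM final added afterwards for a 110 s antagonist window.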
TRPV1 potentiator: human TRPV1 potentiation; Q8NER1; TRPV1-expressing cells, Fluo-8 calcium influx, capsaicin EC20 potentiation; host cell line not named in the record; control for the full effect not named in the record; potentiation, % at 8.33 µM; 320,000 compounds, 0.02% hits; AID 540277; active means potentiation above 80%; inconclusive means 30% to 80%; inactive means below 30%; note: 0% is about no effect
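TRPV1-expressing cells were cultured overnight at 35.5C and loaded with Fluo-8 calcium dye for 40 to 90 min at room temperature. After a 10 s baseline, compound was added and calcium influx was read kinetically for 3 min (ex 480/em 520 nm).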
D2 potentiator: potentiates the human D2 dopamine receptor allosterically. P14416. DiscoveRx D2 beta-arrestin cells, luminescence, 90 min; 100% = 57 uM dopamine signal. potentiation, % (test concentration not listed). 360,000 compounds, 0.23% hits. AID 624464; active = potentiation of 50% or more; inconclusive = 30% to 50%; inactive = 30% or less;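 note: compound concentration not given in the record; tested on top of an EC20 dose of dopamine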
Target sequence (P14416 whole entry, looked up): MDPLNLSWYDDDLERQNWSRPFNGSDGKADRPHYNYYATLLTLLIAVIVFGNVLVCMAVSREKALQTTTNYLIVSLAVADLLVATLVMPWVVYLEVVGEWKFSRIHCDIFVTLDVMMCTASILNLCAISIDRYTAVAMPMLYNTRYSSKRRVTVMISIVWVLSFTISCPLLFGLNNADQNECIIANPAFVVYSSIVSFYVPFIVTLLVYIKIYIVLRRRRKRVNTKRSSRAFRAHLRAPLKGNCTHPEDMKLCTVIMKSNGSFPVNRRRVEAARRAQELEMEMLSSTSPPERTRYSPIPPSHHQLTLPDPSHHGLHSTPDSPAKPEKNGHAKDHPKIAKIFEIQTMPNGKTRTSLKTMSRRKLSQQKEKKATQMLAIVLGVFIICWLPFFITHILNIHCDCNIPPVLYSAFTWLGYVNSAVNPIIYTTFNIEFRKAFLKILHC
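PathHunter beta-arrestin assay in DiscoveRx D2 cells. Compounds were added with an EC20 of dopamine (50 nM final) for 90 min at 37 deg C. Luminescence was read 1 h after detection reagent, with 57 uM dopamine as the EC100 control.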
CtBP-E1A inh: CtBP/E1A binding inhibition; AlphaScreen GST-E1A/His-CtBP binding, 1536-well; active compounds read low; control for the full effect not named in the record; activity change, % (no concentration beside the values); 340,000 compounds, 0.49% hits; in the data active means activity change below about -65%; inconclusive means about -30% to -65%; inactive means above about -30%; note: % is set by controls: 0 for no effect and ±100 for the full control effect
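AlphaScreen with 125 nM GST-E1A and 125 nM His-CtBP (5X stocks) in Tris pH 8.0, 300 mM NaCl, BSA, Tween 20, TCEP. Compounds preincubated 2 h at 37 deg C, then glutathione donor/nickel acceptor beads added for 1 h at 37 deg C in dark.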
* = called active by the depositor; ? = inconclusive; nt = not tested or not shown; & = joins results of further samples.

SMILES	Six1-Eya2 inh	TRPML1 inh	TRPML1 ag	TRPV1 potentiator	D2 potentiator	CtBP-E1A inh
CCOc1ccccc1NC(=O)CCc1c(C)nn(-c2ccc(N3CCCCC3)nn2)c1C	-1	-5&15	-0.9&1.6	-18	20	1
Cc1cc(C)c2c(-n3cccc3)c(C(=O)O)sc2n1	0	5	-0.5	4	-7	8
CCCC12CN3CCN(CC(C3)/C1=N\NC(=O)c1ccccc1Cl)C2	3	-5	1.4	2	0	2
CC(C)CNC(=O)C(=O)NCC1OCCCN1S(=O)(=O)c1cccs1 (configuration not stated)	1	13	0.1	2	-4	-1
Cc1cc(C(=O)OCC(=O)c2cccc([N+](=O)[O-])c2)c2cccc(C)c2n1	-3	-17	2.4	-6	-3	9
CC(C)OC(=O)C(=O)NNc1ccccc1	3	15	0.2	21	-7	9
O=C(CSc1nnc(-c2ccc3c(c2)OCO3)n1-c1ccccc1)c1ccc(Cl)cc1	-2	-5	-0.2	-9	-14	12
COc1ccc(/C=C/c2nc3ccccc3c(=O)n2-c2cccc(C(=O)O)c2)cc1	4	-11	-0.8	-6	-9	-23
CC(=O)N(C)c1ccc(NC(=O)Nc2cccc3ccccc23)cc1	0	24	0.3	4	-16	-4
O=CN1CCN(C(=O)COc2ccc(Cl)cc2Br)CC1	10	-4	-0.1	17	-8	nt
CSc1ccc(C2=C/C(=C3/SC(=S)NC3=O)c3ccccc3O2)cc1	-2	44	-0.5	nt	-2	-6
Cc1ccc(NC(=O)c2cccc(Oc3ccc([N+](=O)[O-])cc3)c2)c(C(=O)O)c1	-3	-16	-1.0	0	4	nt
O=C(Nc1ccc(F)cc1)Nc1csc2ccccc12	11	15	1.7	-25	-13	0
CC1(C)CC(=O)CC(=O)/C1=N\Nc1c(Cl)cc(Cl)cc1Cl	-16	-20	1.5	22	-32	-18
CCCNC(=O)C1CC2Cn3c(nc4ccccc43)C2N1C (configuration not stated)	-3	-4	-0.6	-20	-10	7
CC1CCCC(C)N1C(=O)COC(=O)CCc1nc2ccccc2c(=O)[nH]1 (configuration not stated)	2	-20	-0.1	9	-26	24
CC(=O)N1CCC(N(CCN2CCOCC2)C(=S)Nc2cc(C)cc(C)c2)CC1	5	-9	-0.5	6	-3	1
COc1ccccc1OCCNC(=O)C1CC(=O)N(c2ccccc2OC)C1 (configuration not stated)	5	-8	-0.1	-9	-3	9
O=C(NC1CCS(=O)(=O)C1)c1sc2ccccc2c1Cl (configuration not stated)	-1	4	-0.4	1	-3	-27
CCn1nc(C)c(NC(=O)c2ccc(Cl)cc2)c1C	0	-2	0.9	4	-46	nt
CC1CCN(C(=O)c2ccc3c(c2)C(=O)c2ccccc2-3)CC1	5	3	0.7	nt	-10	-2
CCc1ccc(Nc2n[n+](-c3ccccc3)c(-c3ccc(SC)cc3)s2)cc1	-10	28	0.8	-12	-23	10
CC(=O)S[C@@H]1CC2=CC(=O)CC[C@]2(C)[C@H]2CC[C@@]3(C)[C@@H](CC[C@@]34CCC(=O)O4)[C@H]12	0	0	-0.1	nt	3	2
CN(C)C(=O)c1cccc(-c2cnc3c(NC=O)cc(-c4cccc(F)c4)cn23)c1	?	nt	-0.9	nt	2	?

Full records, quoted from the list.
CC(C)CNC(=O)C(=O)NCC1OCCCN1S(=O)(=O)c1cccs1 (configuration not stated) across the screens: Six1-Eya2 inh = 1; TRPML1 inh = 13; TRPML1 ag = 0.1; TRPV1 potentiator = 2; D2 potentiator = -4; CtBP-E1A inh = -1
CCn1nc(C)c(NC(=O)c2ccc(Cl)cc2)c1C across the screens: Six1-Eya2 inh = 0; TRPML1 inh = -2; TRPML1 ag = 0.9; TRPV1 potentiator = 4; D2 potentiator = -46; CtBP-E1A inh = nt
CCCNC(=O)C1CC2Cn3c(nc4ccccc43)C2N1C (configuration not stated) across the screens: Six1-Eya2 inh = -3; TRPML1 inh = -4; TRPML1 ag = -0.6; TRPV1 potentiator = -20; D2 potentiator = -10; CtBP-E1A inh = 7

Next part:
SMILES	Six1-Eya2 inh	TRPML1 inh	TRPML1 ag	TRPV1 potentiator	D2 potentiator	CtBP-E1A inh
CCCCC(=O)C1=C(N2CCCC2)CC(C)(C)CC1=O	9	-7	0.0	nt	9	-11
Cc1cc(C)n2nc(SCC(=O)N3CCC(C(=O)O)CC3)nc2n1	0	0	-0.4	nt	-23	0
O=C(CN1C(=O)C2C3C=CC(C3)C2C1=O)Nc1ccc(S(=O)(=O)N2CCCCC2)cc1 (configuration not stated)	1	-8	1.0	11	-3	3
O=C(CCn1c(=O)oc2ccccc21)n1c(=O)oc2ccccc21	-1	22	0.2	nt	5	-4
COc1ccc(NS(=O)(=O)c2ccc(NC(=S)NCC3CCCO3)cc2)cc1 (configuration not stated)	-4	1	0.2	-4	-5	2
Cc1cc(C)c(NC(=O)CSc2nnc(-c3ccco3)n2N)c(C)c1	2	-8	-1.1	0	-14	3
CC(C)(C)C(=O)c1c(N)[nH]c(C(=O)c2ccccc2)c1-c1ccc(F)cc1	-9	nt	-0.1	nt	nt	0
COC(=O)[C@]12CCCCC=C1N(Cc1cccc3ccccc13)C(=O)[C@H](CC(=O)N1CCN(C(=O)C3CC3)CC1)C2	-8	nt	0.8	nt	nt	-1
C/C(=N/NC(=O)c1ccc(O)cc1)c1cccc([N+](=O)[O-])c1	4	-3	-0.5	-21	-3	0
Cc1noc(C)c1S(=O)(=O)N1CCC(C(=O)N2CCN(Cc3ccc4c(c3)OCO4)CC2)CC1	0	-8	0.4	5	-28	0
O=C(CSc1ccc2nnc(CCNC(=O)c3ccccc3)n2n1)Nc1ccc(F)cc1F	-1	-13	0.2	14	16	4
COc1ccccc1OCCNC(=O)C(=O)c1c[nH]c2ccccc12	-3	nt	nt	?	-6	0
O=C(O)CCCCCNCc1c(Cl)cccc1Cl	-21	-29	0.0	-11	-10	0
Cc1ccc(SCCC(=O)NC(C)(C)C)cc1	7	-1	-0.8	0	-7	4
CCOC(=O)C(NC(=O)Nc1ccc(C(N)=O)cc1)(c1ccccc1)C(F)(F)F (configuration not stated)	3	-12	-0.1	-2	-1	7
Cn1c(=O)c2c(Nc3ccc(F)cc3)cc(=O)n(-c3ccccc3)c2n(C)c1=O	-21	-1	0.9	-1	-19	4
CCCn1c(-c2cccs2)nc2c1c(=O)[nH]c(=O)n2Cc1ccccc1	2	-6	0.7	3	-1	1
COCCN(C(=O)CCC(=O)Nc1ccccn1)C(C(=O)NC1CCCC1)c1ccc(OC)cc1 (configuration not stated)	2	9	-0.1	6	9	-7
O=C1CSC(c2cccc(Cl)c2Cl)N1c1ccccn1 (configuration not stated)	3	3	0.5	6	0	0
COC(=O)CN1C(=O)N(c2ccccc2)C(N(O)C(=O)Nc2ccccc2)C1(C)C (configuration not stated)	2	0	-0.4	0	-2	5
CCCCN1C(=O)C2ON(c3ccccc3C)C(c3ccco3)C2C1=O (configuration not stated)	-5	-1	0.6	nt	1	7
CSc1nnc2sc3cc(C)ccc3n12	-20	-30	-0.1	nt	-15	-2
O=C(Cc1ccc(Cl)cc1)Nc1ccc2c(c1)C(=O)NC2=O	-5	5	-0.6	-14	-7	4
COc1cccc(S(=O)(=O)N(C)C[C@H]2OCc3cnnn3CCCC(=O)N([C@H](C)CO)C[C@@H]2C)c1	0	6	-0.9	nt	2	0
CN(C)Cc1cc(C(C)(C)c2cc(CN(C)C)c(O)c(CN(C)C)c2)cc(CN(C)C)c1O	-8	-17	0.5	21	-1	-7
NC(=O)c1csc(C2OC(CO)C(O)C2O)n1 (configuration not stated)	5	nt	-0.3	nt	nt	10
Cn1c(NCC2CCCCC2)nc2cc(-c3ccsc3)sc2c1=O	5	nt	-0.7	nt	-8	-13
CCOC(=O)c1ccc(NC(=S)NCCCN2CCCC2=O)cc1	-4	-2	-0.6	-7	-7	6
CCNC(=O)C(=O)NCCC1CCCCN1S(=O)(=O)c1cccs1 (configuration not stated)	11	12	0.4	3	-26	-8
COc1cc(C(=O)N2CCN(C3CCC(C)CC3)CC2)cc(OC)c1OC (configuration not stated)	3	2	0.1	-12	-18	-10
Fc1ccc(-c2nc(-c3cccs3)no2)cc1	7	nt	nt	-14	-12	4
Cc1ccccc1C(=O)NNC(=O)c1ccoc1C	-4	-16	0.5	nt	-5	0
Cc1c(CC(=O)NCCCCCC(=O)O)c(=O)oc2c(C)c3oc4c(c3cc12)CCCC4	2	-22	0.4	3	-5	6
Cc1ccc(Nc2nc(-c3ccncc3)nc3ccccc23)cc1	1	14	2.9	2	0	5
CCCCn1c(N)c(N(CCC(C)C)C(=O)c2ccc(-c3ccc([N+](=O)[O-])cc3)o2)c(=O)[nH]c1=O	7	-5	1.3	9	1	6
O=C(Cn1cnc2ccccc2c1=O)NCC(=O)N1CCN(Cc2ccc3c(c2)OCO3)CC1	-4	-7	-0.6	3	18	-3
Cc1ccc(OCCC(=O)N(CC(=O)Nc2ccccc2C(F)(F)F)Cc2ccco2)cc1	0	-10	1.1	3	4	5
COc1cc(CC(=O)NNC(=O)c2cc(C)oc2C)cc(OC)c1OC	7	-4	0.9	-8	-11	16
Cc1ccccc1OCc1nc2ccccc2c(=O)n1/N=C/c1ccco1	-11	19	0.2	15	-4	-2
Cc1cccc(NC(=O)CSc2nc3nc(C)cc(C)n3n2)c1	-20	-15	-0.9	14	-6	-9
C[C@H](CO)N1C[C@H](C)[C@@H](CN(C)Cc2ccc3c(c2)OCO3)OCc2cnnn2CCCC1=O	8	-9	-0.3	nt	0	3
CCc1nc2ccccc2c(C(=O)OCC(=O)Nc2cccc(S(=O)(=O)NC3=NCCCCC3)c2)c1C	?	-7	3.5	19	6	?
COc1ccc(Cl)cc1NC(=O)C/C(C)=N/NC(=O)CC#N	0	7	1.9	2	-9	0
CC(C)(C)c1ccc(C(=O)NNC(=O)c2ccc(Cl)cc2)cc1	-1	-5	-0.6	5	-1	5
CC(C)(C)NC(=O)COC(=O)c1c2c(nc3ccccc13)CCC2	-3	5	0.7	2	10	0
Cc1ccc(-c2cnc(C(O)c3c(C)cccc3C)[nH]2)cc1 (configuration not stated)	-11	nt	-0.7	nt	-2	-3
Cc1cccc(N2CCN(C(=O)c3cccs3)CC2)c1C	11	4	0.5	-30	-7	6
CCOCCn1c(CN2CCCCC2C)nc2c1c(=O)n(C)c(=O)n2C (configuration not stated)	13	0	-0.2	-8	-5	8
Cc1cccc(C)c1OCc1nc2ccccc2[nH]1	7	-13	-0.8	-18	13	0
Cc1cc2cc(CNC(=O)c3ccc(S(=O)(=O)N4CCOCC4)cc3)ccc2n1C	-3	-3	-0.4	6	-1	-22
CCC(=O)N1CCC(C)(C(=O)NCc2ccc(F)cc2)C1 (configuration not stated)	0	nt	-0.6	nt	-4	8
Cc1cc(C)cc(NC(=O)CSc2nnc(-c3ccc(S(=O)(=O)N4CCCC4)cc3)o2)c1	4	1	0.5	6	-3	1
COc1ccc(CCN(C)CCC(=O)Nc2c(C)cc(C)cc2C)cc1OC	2	-7	-0.3	4	-17	0
COc1ccccc1NC1=NC(CO)(CO)CS1	6	11	-0.1	-7	-12	nt

No enrichment for hits; any-hit rate near 0.95%.
